Rce1 inh = inhibitors of yeast Ras-converting enzyme | AID 2563 | calls only | 290,000 compounds, 0.27% hits | yeast membranes, quenched prenylated peptide cleavage fluorescence;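 active = fall in fluorescence gain of 50% or more versus controls, with final raw signal at or below 3038400; inconclusive = same 50% fall but final raw signal above 3038400; inactive = fall in fluorescence gain under 50%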;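 note: plate controls were neutral control wells for no effect and wells lacking membranes for full effect; tested at 10 µM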
Target sequence (Q03530 whole entry, looked up): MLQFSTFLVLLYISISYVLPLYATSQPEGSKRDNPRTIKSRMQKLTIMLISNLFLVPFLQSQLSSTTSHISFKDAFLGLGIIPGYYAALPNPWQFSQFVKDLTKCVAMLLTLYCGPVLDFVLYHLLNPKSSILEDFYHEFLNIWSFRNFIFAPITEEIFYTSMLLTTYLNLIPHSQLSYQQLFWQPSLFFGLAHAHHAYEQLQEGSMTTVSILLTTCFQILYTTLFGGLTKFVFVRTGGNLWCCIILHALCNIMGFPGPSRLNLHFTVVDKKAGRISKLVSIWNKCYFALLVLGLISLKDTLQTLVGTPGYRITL
CSC inhib = blocks cancer stem cells. cancer stem cell-like cells viability, luminescence. inhibition, % at 7.5 µM. 300,000 compounds, 1.1% hits. AID 2717;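 active = mean at 75% or more and at least half the replicates too; inconclusive = mean and replicates disagree; tested in HMLE shEcad cells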;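 note: 0% = median of negative and 100% = median of positive control wells; the first replicate is given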
eIF4H FP inh = inhibitors of RNA binding by human eIF4H | eIF4H fluorescence polarization binding assay | inhibition, % at 35 µM | 290,000 compounds, 0.94% hits | AID 2012;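 active = 50% or more with normal probe brightness, or confirmed in later tests; inconclusive = above 50% with abnormal brightness, or retests that disagree; inactive = below 50% or failed in later tests; about a fifth of its hits are not listed in these tables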;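 note: calls also rest on retests at 20 µM and on dose response follow-up; 0% = protein and probe with vehicle and 100% = probe without protein; strong numbers were not always called active; many hits fall short of the cut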
MT1-MMP act inh = blocks activation of human MT1-MMP; 360,000 compounds, 0.061% hits; P50281; GFP/RFP ratio change, % at 20 µM; HT1080 RFP-PRO-GFP cells, GFP/RFP ratio fluorescence, overnight; percent of plate control window, DMSO zero; AID 651647;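 active = GFP/RFP ratio change of at least 30% with cell ATP level not reduced by more than half and red fluorescence within 50% of control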; note: strong numbers were not always called active
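Assay system: HT1080 cells carrying an RFP-PRO-GFP reporter | Dosing: Single dose of 20 µM compound, 1% DMSO final | Incubation: Cells overnight before dosing, compound overnight, 37 °C, 5% CO2 | Evaluation: GFP/RFP fluorescence ratio | Control set: DMSO and RFP-L50D-GFP cell wells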
Yeast UUG start = yeast start codon fidelity modulation; S. cerevisiae UUG-firefly luciferase reporter, luminescence/redox ratio; 350,000 compounds, 0.13% hits; activity score, % at 18.7 µM;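 active = replicate mean at a twofold rise or more, about +100% in these data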;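 note: firefly luciferase made from a UUG start codon reports start codon fidelity; reporter light over untreated wells divided by growth signal over untreated wells; some hits fall short of that in this replicate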
PABP polyA inh = PABP-poly(A) binding inhibition. inhibition, % at 35 µM. 290,000 compounds, 1% hits. PABP-poly(A) RNA binding, fluorescence polarization;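 active = 50% or more with normal probe brightness, or confirmed in later tests; inconclusive = above 50% with abnormal brightness, or retests that disagree; inactive = below 50% or failed in later tests; about a fifth of its hits are not listed in these tables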;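 note: calls also rest on retests at 20 µM and on dose response follow-up; controls were probe without protein and protein plus probe with vehicle; some compounds called inactive have numbers as strong as hits; many hits fall short of the cut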
Target sequence (P11940 whole entry, looked up): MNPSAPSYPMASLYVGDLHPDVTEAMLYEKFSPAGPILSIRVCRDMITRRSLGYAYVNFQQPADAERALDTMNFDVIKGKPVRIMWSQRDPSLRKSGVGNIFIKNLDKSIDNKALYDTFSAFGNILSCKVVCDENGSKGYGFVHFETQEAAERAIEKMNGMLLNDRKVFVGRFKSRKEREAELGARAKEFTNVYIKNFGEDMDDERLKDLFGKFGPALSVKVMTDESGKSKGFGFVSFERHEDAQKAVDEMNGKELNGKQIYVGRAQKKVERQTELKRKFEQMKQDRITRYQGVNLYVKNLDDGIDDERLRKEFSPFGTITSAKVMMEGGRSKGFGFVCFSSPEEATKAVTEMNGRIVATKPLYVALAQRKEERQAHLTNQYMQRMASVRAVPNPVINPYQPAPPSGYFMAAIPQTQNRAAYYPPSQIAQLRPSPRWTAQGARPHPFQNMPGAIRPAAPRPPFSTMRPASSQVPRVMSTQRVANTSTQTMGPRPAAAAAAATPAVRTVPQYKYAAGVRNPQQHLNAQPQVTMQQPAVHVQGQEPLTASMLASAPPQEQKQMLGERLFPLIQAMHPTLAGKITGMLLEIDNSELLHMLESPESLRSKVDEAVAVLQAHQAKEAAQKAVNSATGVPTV
HIV Env fusion = HIV envelope-mediated fusion inhibition. AID 651610. 360,000 compounds, 1.1% hits. HeLa-JRFL Env/CEM21 cell fusion, luciferase. inhibition, % at 12.3 µM;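 active = mean replicate inhibition score of at least 50 and every replicate individually at or above 50; inconclusive = only one of the two criteria met; inactive = mean below 50 and not all replicates reaching 50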;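 note: 0% = plate neutral controls and 100% = maraviroc near 300 nM; one replicate is shown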
MT1-MMP act inh RFP = further read-out of MT1-MMP act inh, marked with its call; RFP signal change, %; measured here: RFP expression control read;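 0 = vehicle wells; hits needed this value within 50% of zero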
An asterisk follows results filed as active; i = inactive; ? = inconclusive; · = not tested or not shown.

Values run as follows: Rce1 inh, CSC inhib, eIF4H FP inh, MT1-MMP act inh, MT1-MMP act inh RFP, Yeast UUG start, PABP polyA inh, HIV Env fusion
> CN(c1ccc(C(=O)NCc2ccc3c(c2)OCO3)cc1)S(=O)(=O)c1ccccc1
    i, -16, 4, 0, -1, ·, -3, -1
> Cc1ccc(CNC(=O)CN2C(=O)NC(C)(c3ccc(Cl)cc3)C2=O)cc1 (stereo unspecified)
    i, -4, 4, 3, 2, -26, -10, 17
> COc1cc2c(cc1OC)CN(CC(=O)Nc1ccc3c(c1)OCO3)CC2
    i, ·, -2, -5, -2, ·, -1, ·
> O=C(CCCOc1ccc(Cl)cc1Cl)N/N=C/c1cccc([N+](=O)[O-])c1
    i, ·, -8, 3, -1, ·, -5, 26
> Cc1cccc(NC(=O)c2ccccc2Br)n1
    i, -15, -5, -3, 1, -28, -16, -24
> Cc1ccc2c(C(=O)CN3CCOCC3)c(C)[nH]c2c1
    i, -2, -2, 8, 2, -6, 3, -51
> O=S(=O)(Cc1ccccc1Cl)Nc1ccccn1
    i, ·, 0, 7, 2, -3, -3, ·
> OCCN(Cc1ccccc1)CC1CC2C=CC1C2 (stereo unspecified)
    i, -4, -2, 8, 11, -20, 2, -14
> CCOC(=O)c1c(NC(=O)C(C)N2CCN(S(=O)(=O)c3cccs3)CC2)sc2c1CCC(C)C2 (stereo unspecified)
    i, 29, -1, -11, -8, -7, 13, -14
> CN1CCC(NC(=S)Nc2cccc([N+](=O)[O-])c2)CC1
    i, -10, 2, 2, 7, ·, 4, -6
> COc1ccc(NC(=O)C2CCCN(S(=O)(=O)c3c(C)n[nH]c3C)C2)cc1 (stereo unspecified)
    i, 6, -2, -7, -2, -17, -4, ?
> O=C(Nc1cccnc1)c1cc(Cl)ccc1Cl
    i, -11, -8, -2, 0, -14, -15, -12
> CN(C(=O)CN1C(=O)c2cc(Cl)c(Cl)cc2C1=O)C1CCS(=O)(=O)C1 (stereo unspecified)
    i, -6, ·, 3, 1, ·, ·, ·
> O=C(O)c1ccc2nc3c(nc2c1)-c1ccccc1C3=O
    i, 0, 5, -2, 3, 13, -8, -2
> Nc1c(C(=O)c2ccccc2O)cnn1-c1ccc(S(=O)(=O)N2CCOCC2)cc1[N+](=O)[O-]
    i, -8, -2, ·, ·, ·, 0, 5

Additional entries:
Values run as follows: Rce1 inh, CSC inhib, eIF4H FP inh, MT1-MMP act inh, MT1-MMP act inh RFP, Yeast UUG start, PABP polyA inh, HIV Env fusion
> O=C(NC1CCCCC1)c1ccc(-c2ccccc2[N+](=O)[O-])o1
    i, 10, -11, -4, -4, -20, 8, -188
> O=C(Nc1ccc(N2CCN(c3ncccc3C(F)(F)F)CC2)nc1)c1cccs1
    i, 30, -12, -4, -28, ·, -6, 35
> O=C(COc1cccc(Br)c1)N/N=C/c1ccc2c(c1)OCCO2
    ·, ·, ·, -5, 3, -16, ·, -35
> CC(=O)Nc1cccc(C(=O)N/N=C/c2ccc(F)cc2)c1
    i, -9, -5, 7, 8, ·, 7, -25
> O=C(/C=C/c1ccccc1)Nn1cnc2ccccc2c1=O
    i, 3, 4, -2, 3, ·, 7, -2
> Cc1csc2nc(COC(=O)CNC(=O)c3ccc(Cl)cc3)cc(=O)n12
    ·, ·, ·, -2, 6, -11, ·, 10
> O=C(Cc1ccccc1)NCCS(=O)c1ccc(Cl)cc1 (stereo unspecified)
    ·, -11, 2, -6, -1, -17, -2, ·
> Cc1nc(C(=O)NCc2ccccc2)sc1C1(C)CC(c2cccc([N+](=O)[O-])c2)=NO1 (stereo unspecified)
    i, -3, 5, 6, -4, -11, 8, 3
> CCC(C)(C)C1CCC(=NNc2nc3ccccc3[nH]2)CC1 (stereo unspecified)
    i, 22, 3, 3, 2, -25, 2, 4
> Cc1ccc2nc3c(cc2c1)CN(Cc1ccco1)C(=NCC1CCCO1)S3 (stereo unspecified)
    i, 48, -10, -11, -17, -17, 4, ·
> Cn1c(CNS(=O)(=O)c2cccc(Cl)c2)cc(=O)n(C)c1=O
    i, 5, -6, 0, 0, ·, 0, -2
> OC(c1ccccc1)c1nc(-c2cccs2)cs1 (stereo unspecified)
    ·, ·, ·, 1, -1, 7, ·, -22
> COc1ccc(CNCCNC(=O)c2nonc2N)cc1OC
    i, -14, 4, -3, 0, -15, -3, -51
> CC(=O)c1ccc(NC(=O)CN2CCCCCC2)cc1
    i, -6, 6, 0, 4, -19, 7, 2
> C=CCNC(=O)/C(C#N)=C/c1c(N2CCCCCC2)nc2ccccn2c1=O
    i, -3, 1, -4, -1, -4, 2, -17

(list continues)
Values run as follows: Rce1 inh, CSC inhib, eIF4H FP inh, MT1-MMP act inh, MT1-MMP act inh RFP, Yeast UUG start, PABP polyA inh, HIV Env fusion
> Nc1ccc(C2(c3ccc(N)cc3)OC(=O)c3ccccc32)cc1
    i, -6, 1, -1, 2, -11, -3, 1
> Cc1cc(C)cc(C(=O)NCC(=O)OCC(=O)N2CCN(S(=O)(=O)c3ccc4ccccc4c3)CC2)c1
    i, -10, 49, 2, 2, -16, -2, -17
> CCN(CC)S(=O)(=O)c1ccc2c(c1)nc(SC(C)C(N)=O)n2-c1ccc(OC)cc1 (stereo unspecified)
    i, 28, -13, 0, 4, ·, -3, ·
> O=[N+]([O-])c1cccc2ccc(N3CCOCC3)nc12
    i, -3, 5, 3, 5, 5, 2, 8
> N#Cc1c(N2CCOCC2)nc(N)c2c(N)nc3c(c12)CC(CCl)O3 (stereo unspecified)
    i, -7, 2, -2, 1, ·, 5, 21
> O=C(CSc1nc2ccccc2n1CCc1ccccc1)c1ccc(O)c(O)c1
    ·, ·, 90*, 3, -3, -11, 94*, -1
> CCCCCn1c(SCC(=O)OCC)nc2cc(C(=O)N3CCC(C(N)=O)CC3)ccc2c1=O
    i, 1, -4, 5, 1, 15, -11, 27
> Cc1nc(NCc2ccco2)c2cn[nH]c2n1
    ·, ·, ·, 3, -6, -11, ·, 1
> Cc1cccc(C)c1NC(=O)CC(C)c1ccccc1 (stereo unspecified)
    i, -12, -2, 1, 3, -33, -1, -5
> O=c1c2ccccc2c(-c2n[nH]c(=S)o2)nn1Cc1ccccc1
    i, 1, -9, 5, 5, ·, -3, 17
> Nc1cc(Oc2ccc(Cl)cc2Cl)nc(N)n1
    i, -9, -10, 4, 3, 1, 14, -3
> O=C(CCc1ccccc1)Nc1ccc(NC(=O)c2ccco2)nc1
    i, 4, -1, 10, 8, -19, 5, -85
> Cc1ccc(S(=O)(=O)NC(=O)c2cc(C)n(-c3cc(S(=O)(=O)N4CCOCC4)ccc3N3CCCC3)c2C)cc1
    i, -20, 3, 6, 6, ·, 6, ·
> COc1ccccc1CCNC(=O)C(=O)NCCC1CCCCN1S(=O)(=O)c1ccccc1 (stereo unspecified)
    i, 4, ·, -6, -7, 10, ·, 8
> O=C(NCCC1=CCCCC1)NC1CCCCC1
    i, -12, -16, -3, 2, -21, -12, ·

Pulled by compound from the entries so far (2):
Values run as follows: Rce1 inh, CSC inhib, eIF4H FP inh, MT1-MMP act inh, MT1-MMP act inh RFP, Yeast UUG start, PABP polyA inh, HIV Env fusion
> Cc1cccc(C)c1NC(=O)CC(C)c1ccccc1 (stereo unspecified)
    i, -12, -2, 1, 3, -33, -1, -5
> Cc1cc(C)cc(C(=O)NCC(=O)OCC(=O)N2CCN(S(=O)(=O)c3ccc4ccccc4c3)CC2)c1
    i, -10, 49, 2, 2, -16, -2, -17

(next part)
Values run as follows: Rce1 inh, CSC inhib, eIF4H FP inh, MT1-MMP act inh, MT1-MMP act inh RFP, Yeast UUG start, PABP polyA inh, HIV Env fusion
> CC(C)N1CCc2c(sc(NC(=S)NC(=O)c3ccccc3)c2C#N)C1
    ·, -6, ?, -108, 2, ·, 1, -11
> CCOc1ccc2oc(=O)cc(CN3CCN(Cc4ccccc4)CC3)c2c1
    i, 7, 1, 2, -2, 2, -3, -5
> CCCOc1ccc(S(=O)(=O)N2CCN(C)CC2)c2ccccc12
    ·, -19, 9, 0, -4, -18, 4, 17
> CCNC(=S)NC1CC2CCCC(C1)N2CCc1ccccc1 (stereo unspecified)
    i, -5, 6, -4, -2, -22, -1, -12
> Nc1ncc(N=Nc2cc(C(=O)O)ccc2Cl)s1
    ·, -8, 42, -1, 2, ·, 48, 6
> COc1ccccc1OCc1ccc(C(=O)NC2CCCCC2)o1
    i, -2, 0, 3, 1, -15, 0, 7
> Cc1ccc(S(=O)(=O)N2CCN(C(=O)CN3C(=O)NC(C)(c4ccc(Cl)cc4)C3=O)CC2)c(C)c1 (stereo unspecified)
    ·, 3, ·, 3, -17, 14, ·, 3
> COc1cccc(NC(=O)C2CCN(S(C)(=O)=O)CC2)c1
    i, 8, 10, 2, 1, -20, 6, ·
> CSC[C@H]1CN(CCc2ccccc2)C(=O)[C@@H]1CC(=O)Nc1ccccc1
    ·, ·, ·, 1, 3, 0, ·, -4
> CC(=O)Nc1ccc(NC(=O)C(C)OC(=O)c2ccc3ccccc3n2)cc1 (stereo unspecified)
    ·, -21, ·, -3, -1, -8, ·, ·
> CC(C)CN(C(=O)COC(=O)c1ccc([N+](=O)[O-])s1)c1c(N)n(Cc2ccccc2)c(=O)[nH]c1=O
    i, -2, ·, -3, -5, -18, ·, -4
> COc1ccc(/C=C2\SC(=O)N(CCNC(=O)Cc3coc4cc(C)ccc34)C2=O)cc1OC
    i, -3, 2, -1, -9, ·, -8, 8
> Cc1ccc(NC(=S)NC(C)(C)C)c([N+](=O)[O-])c1
    i, 12, -4, -1, -5, -30, 3, -8
> COc1cc(N)c(Cl)cc1C(=O)OCC(=O)NCc1cccs1
    ·, -21, ·, 3, 2, 2, ·, ·
> Cn1nc(C(C)(C)C)cc1N1C(=O)CCC1(C)C(=O)NC1CCCC1 (stereo unspecified)
    ·, ·, ·, -1, 8, -6, ·, 46

(cont.)
Values run as follows: Rce1 inh, CSC inhib, eIF4H FP inh, MT1-MMP act inh, MT1-MMP act inh RFP, Yeast UUG start, PABP polyA inh, HIV Env fusion
> Cn1c(COc2ccccc2)nnc1SCC(=O)Nc1ccc2c(c1)OCO2
    i, 2, -1, 1, 3, -12, 8, ·
> CN(C)CCCNc1nc(-c2ccccc2)c2c(c1C#N)CC(C)(C)OC2
    i, -10, 17, -9, -3, 7, 14, 2
> CCn1c(CSc2nc3ccccc3s2)nnc1SCC(=O)OC(C)(C)C
    i, -6, -7, 1, -5, -21, -6, 16
> Cc1[nH]c(=O)[nH]c1C(=O)CCCCC(=O)O
    i, -11, 0, ·, ·, -7, -11, ·
> CCCc1nnc2n1N=C(c1ccc(C)cc1)CS2
    i, 8, 0, 6, 2, -13, 8, 5
> O=C(O)CCN1C(=O)c2ccc(NC(=O)CSc3ccc(Cl)cc3)cc2C1=O
    i, -8, -7, -1, 3, -11, -6, -2
> CCN(CC(=O)Nc1ccc(NC(C)=O)cc1)C(=O)c1oc2c(ccc3ccccc32)c1C
    ·, -8, ·, 6, 3, -20, ·, -9
> Cc1ccc(S(=O)(=O)c2ccccc2)cc1S
    i, 11, -2, ·, ·, ·, -7, ·
> CCN(C(=O)COC(=O)CCC(=O)c1ccc(Cl)cc1)c1c(N)n(Cc2ccccc2)c(=O)[nH]c1=O
    ·, ·, ·, -3, -1, -1, ·, 2
> C[C@@H]1CC=C[C@H]2[C@H]1C(=O)N(Cc1ccccc1)[C@H]2c1ccc(F)c(Br)c1
    i, ·, -1, ·, ·, ·, 7, ·
> CC1=CC(c2ccc(Cl)cc2)n2nc(NC(=O)CCC(=O)O)nc2N1 (stereo unspecified)
    i, -4, -3, 2, 5, ·, 10, -29
> S=C(Nc1ccccc1)N1N=C(c2cccs2)CC1c1cccs1 (stereo unspecified)
    i, -14, -8, 1, 1, ·, -5, 8
